PK Bst = pyruvate kinase (B. stearothermophilus) modulation; partly purified Bacillus stearothermophilus pyruvate kinase, luminescence ATP production; ribose 5-phosphate activator present at AC10; Potency, µM; actives 1.2% (n = 51,000); in the data active means potency below about 11 µM; inconclusive means mostly about 12 µM to 25 µM; inactive means weaker than that;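 the screen sought inhibitors and activators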;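 note: potency is the fitted concentration of half-maximal effect; scaled between full activation by ribose 5 phosphate and full inhibition by luteolin; about four in five hits inhibit and the cells do not say which; series up to 57 µM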
YjeE inh = YjeE (TsaE) inhibition, E. coli; P0AF67; purified YjeE, fluorescence polarisation of a bound ADP probe; Potency, µM; actives 0.05% (n = 71,000); AID 605; active = well fitted falling curve; inconclusive = weaker or top-dose-only fall, or a rising curve; inactive = flat or poorly fitted curve;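 note: top concentration of the series not given in the record; excess ADP was the control for the full effect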
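Fluorescence polarization of a BODIPY Texas Red–ADP probe (2 uM) bound to purified YjeE (10 uM) was read after 15 min room-temperature incubation with compounds. Loss of polarization marks inhibitors; ADP serves as titrated control.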
* marks the source's active call; other numbers are inactive results; i = inactive; x = not tested or not shown. These rows are one share of the data; the hit share may differ from the screen's.

SMILES	PK Bst	YjeE inh
COc1ccc(-c2nnn(CC(=O)N(CC(=O)NC3CCCC3)c3cccc(C)c3)n2)cc1OC	>57	i
O=C(NCCCN1CCN(CCCNC(=O)c2ccccc2F)CC1)c1ccccc1F	>57	i
CCN(CC)S(=O)(=O)c1ccc(NC(=O)c2c(-c3ccccc3)noc2C)cc1	x	i
N#Cc1nc(-c2ccc(Cl)cc2)oc1NCc1cccc2c1OCO2	>57	i
CCSc1nc2c(c(=O)n1Cc1ccccc1)SC(C)C2 (stereo not given)	>57	i
COC(=O)c1sc(NC(=O)c2cnccn2)c(C(=O)OC)c1C	>57	i
CCN1C(=O)C2(Nc3ccccc3-c3nc4ccccc4n32)c2cc(OC)ccc21 (stereo not given)	>57	i
CCN1CCN(CC(=O)Nc2ccc3c(c2)OCCO3)C(=O)C1=O	x	i
Cn1c(=O)c(-c2ccccc2)nc2cncnc21	x	i
COc1ccccc1NC(=O)CSCC(N)=O	>57	i
O=S(=O)(NCc1ccco1)c1cccc(S(=O)(=O)N2CCCCC2)c1	>57	i
COc1ccccc1NC(=O)N1CCCC(C(=O)Nc2cccc(C)c2C)C1 (stereo not given)	>57	i
Nc1ncc(Br)cc1S(=O)(=O)NCCC(=O)N1CCN(c2ncccn2)CC1	>57	i
c1cnc2c(OCc3nc4ccccc4[nH]3)cccc2c1	x	i
COc1cccc(C2NC(C)(C(=O)O)C3C(=O)N(C(C)C)C(=O)C23)c1O (stereo not given)	x	i
COc1ccc(CCNc2nc3c(c(=O)n(C)c(=O)n3C)n2C)cc1OC	>25.6	x
Cc1cc(C(=O)N2CCN(Cc3ccc4c(c3)OCO4)CC2)on1	x	i
COc1ccccc1N1CCN(C/C(C)=C/c2ccccc2)CC1	x	i
O=C(c1csnn1)N1CCC2(CC1)CCN(c1ccccc1)CC2	x	i
CCNCCNC(=O)c1c(O)c2c([nH]c1=O)CCCC2	>57	i
Cc1ccc(OCC(O)CN2C(=O)NC(C)(C)C2=O)cc1C (stereo not given)	x	i
O=C(CCn1c(=O)[nH]c2ccccc2c1=O)N1CCN(c2ccc(Cl)cc2)CC1	>57	i
COC(=O)NCc1ccc(CNC(=O)OC)cc1	>57	i
CCCOc1ccc(CN(CCO)CCO)cc1C(=O)OC	>57	i
CCC(Sc1nc2c(c(=O)[nH]1)CCC2)C(=O)Nc1cccc(OC)c1 (stereo not given)	>57	i
CCSc1nc(O)cc(=O)n1-c1ccc(OC)cc1	x	i
COc1ccc(CCn2c(NCc3ccco3)nc3c2c(=O)[nH]c(=O)n3C)cc1	>57	i
COc1ccc(CCNC(=O)C2CCCN(S(=O)(=O)c3cnc[nH]3)C2)cc1OC (stereo not given)	x	i
COc1ccc(C(=O)NCc2oc(-c3ccccc3)cc2C(=O)O)cc1	x	i
CC1CCc2cc(F)ccc2N1C(=O)CCC(=O)O (stereo not given)	>57	i
COc1ccc(-c2noc(CSc3nc(-c4ccccc4)cc(=O)[nH]3)n2)cc1OC	>57	i
CCCSc1nc2c(c(=O)[nH]c(=O)n2C)n1CCc1ccccc1	>57	i
COCCNc1nc(-c2ccccc2Cl)nc2ccccc12	x	i
CCCCc1nc2sc3c(c2c(=O)[nH]1)CCC3	>25.6	x
CCn1cnc2cc(NCc3ccc(C)cc3)ccc21	>57	i
C=CCc1ccc(OCC(O)CN2CCCCC2)c(OC)c1 (stereo not given)	>57	i
CCn1c(C(=O)N2CCCC(C(=O)O)C2)cc2sccc21 (stereo not given)	>57	i
CSC1=C(C#N)C2(CCCC2)C(C#N)=C(N)N1	>57	i
Clc1ccc(-c2nnc(-c3ccco3)o2)cc1	4.02*	i
Cc1cccc(NC(=O)CS(=O)(=O)c2c[nH]c3ccccc23)c1C	x	i
O=C1[C@@H]2C=CC=CC2=NC(=S)N1CCN1CCC(=C(c2ccc(F)cc2)c2ccc(F)cc2)CC1	x	i
O=C(CCCSc1nnc(-c2cccs2)n1CC1CCCO1)c1ccccc1 (stereo not given)	>57	i
O=C(Oc1ccccc1)c1cc2ccccc2o1	x	i
O=C(Nc1ccc(Cl)cc1)C1CCCN(S(=O)(=O)c2cnc[nH]2)C1 (stereo not given)	x	i
NC[C@@H]1O[C@H](O[C@@H]2[C@H](O[C@@H]3O[C@H](CO)[C@@H](O)[C@@H]3O)[C@@H](O)[C@@H](N)C[C@H]2N)[C@@H](N)[C@H](O)[C@@H]1O	x	i
COc1ccc(NC(=O)CN2C(=O)C(C)Oc3ccccc32)c(OC)c1 (stereo not given)	>57	i
CCOC(=O)N1CCN(CCC(=O)Nc2ccc(C)c(Br)c2)CC1	>57	i
N#Cc1cccc(-c2cc(NCc3cccnc3)ncn2)c1	x	i
COCCCN1C(=O)C(=O)/C(=C(/O)c2ccc(C)cc2)C1c1ccccc1 (stereo not given)	>57	i
CCn1c(CSc2ncccn2)nnc1SCC(=O)N1c2ccccc2CC1C (stereo not given)	>57	i
Next section
SMILES	PK Bst	YjeE inh
COC(=O)C1CCN(C(=O)Cc2ccc(Br)cc2)CC1	>57	i
Cc1cc(C)n(C(=O)c2ccc(NC(=O)C3COc4ccccc4O3)cc2)n1 (stereo not given)	>57	i
O=C(CCC(=O)c1ccc(F)cc1)OC1CCOC1=O (stereo not given)	>57	i
CCCn1c(CCNC(=O)c2cccs2)nc2ccccc21	x	i
O=C(Cn1nnc2c(cnn2-c2ccccc2)c1=O)NCc1cccs1	>57	i
COc1ncnc2c1oc1nc(CC(C)C)c3c(c12)CCCC3	>57	i
CCCc1[nH]nc2c1C(c1ccc(O)c(OC)c1)C(C#N)=C(N)O2 (stereo not given)	>57	i
c1cncc(CNCc2cccnc2)c1	x	i
CCOC(=O)c1ccc(COc2nc3ccccc3nc2-c2ccccc2NC(C)=O)o1	>57	i
CCN1C(=O)c2ccccc2S(=O)c2ccc(C(=O)NCCCN3CCCC3=O)cc21 (stereo not given)	x	i
COc1ccc(OCC(=O)Nc2cc(OC)cc(OC)c2)cc1	x	i
CC(C)P(=O)(Cc1cccc(C#N)c1)C(C)C	>57	i
O=C(O)c1cc(N=Nc2ccc([N+](=O)[O-])cc2)ccc1O	x	i
COc1cc(-c2nnc3sc(-c4ccco4)nn23)cc(OC)c1OC	x	i
CN(C)S(=O)(=O)N(CC(=O)NCc1ccccc1)c1ccccc1	>57	i
C=CCC1CCCCC12NC(=O)NC2=O (stereo not given)	x	i
Cn1cccc1C(=O)N1CCC2(CCCN(Cc3ccncc3)C2)CC1	x	i
COCC(COCCCNC(=O)Nc1ccc(Br)cc1)OC (stereo not given)	x	i
c1ccc2c(c1)nc(NC1CCCCC1)c1nncn12	x	i
O=C(N1CCN(c2ccccc2F)CC1)C12CC3CC(CC(C3)C1)C2	>57	i
CC1(C)[C@@H]2CC[C@]1(C)[C@@H](OC(=O)CSC#N)C2	x	i
CN(C)S(=O)(=O)N1CCN(c2cc(Cl)ccc2Cl)CC1	>57	i
CCC(C)NC(=O)CNC(=O)Cn1c(C)cc2ccccc2c1=O (stereo not given)	>57	i
CCCOc1ccc(C2/C(=C(\O)c3c(C)[nH]c(C(=O)OC)c3C)C(=O)C(=O)N2CCN(C)C)cc1 (stereo not given)	>57	i
CN1CCN(C(=O)c2ccc3c(c2)NC(=O)C(N2CCOCC2)S3)CC1 (stereo not given)	>57	i
CCOC(=O)CC(=O)CSc1nnc(Cn2c(=O)sc3ccccc32)n1C	>57	i
Cc1noc(C)c1CSc1nnc(-c2ccccc2F)n1CCc1ccccc1	>57	i
Cc1cccc(-c2noc(-c3ccc(F)cc3)n2)c1	10.4*	i
c1ccc(Cn2nnnc2-c2ccco2)cc1	>57	i
O=C(C1CCCN(S(=O)(=O)c2ccc(Br)s2)C1)N1CCCCCC1 (stereo not given)	>57	i
CCCCc1cc(=O)oc2cc(OCc3nn[nH]n3)c(Cl)cc12	x	i
CCn1cc(C(=O)NCC2CCCO2)c2cc(OC)c(OC)cc2c1=O (stereo not given)	>57	i
CCCCn1c(SCC(=O)Nc2nnc(C)s2)nc2c1c(=O)n(C)c(=O)n2C	>57	i
Nc1cccc([N+](=O)[O-])c1	x	i
Cn1c(CNC(=O)Cc2ccc3c(c2)OCO3)nnc1SCc1ccccc1	>57	i
CN(C)C(=O)c1ccc(-c2nc(NC3CCNCC3)c3ccccc3n2)cc1	x	i
N#Cc1c(NC(=O)c2nc3ncccn3n2)sc2c1CCCCC2	x	i
CCOC(=O)c1c(NC(=O)COC(=O)Cn2cnc3ccccc32)sc(C)c1C	>57	i
CN(C)CCSc1nc(N)c2c3c(sc2n1)CN(C)CC3	>57	i
CC1CCN(C(=O)CCNS(=O)(=O)c2ccccc2)CC1	>57	i
COc1cccc(-c2nc(Nc3ccncc3)c3ccccc3n2)c1	x	i
O=C(Nc1ccc(S(=O)(=O)N2CCOCC2)cc1)C1CCCCC1	>57	i
COc1ccccc1N1CCN(CCCNC(=O)Nc2ccccc2)CC1	>57	i
CN1CCN(S(=O)(=O)c2ccc(NC(=O)c3ccco3)cc2)CC1	>57	i
Cc1cc(C)cc(-c2nc(-c3ccncc3)no2)c1	x	i
COC(=O)[C@H](C)NC(=O)Nc1ccc(S(N)(=O)=O)cc1	>57	i
COc1ccccc1NC(=O)CSc1nc(O)cc(=O)[nH]1	>57	i
CN(C)c1ccc(-c2nc(N(C)Cc3ccco3)c3ccccc3n2)cc1	x	i
CCCNc1ncnc2[nH]ncc12	x	i
CCCn1c(SCC(=O)Nc2nc(C)c(C(=O)OC)s2)nnc1C(C)C	>57	i
Further structures follow:
SMILES	PK Bst	YjeE inh
COc1ccc(-c2c3c(=O)n(C)c(=O)n(C)c3cn2-c2cc(OC)ccc2OC)cc1	>57	i
C1CCCNCC1	x	i
CCC1(C)Cc2ccccc2-c2c1c(=O)n(Cc1ccccc1)c1nnnn21 (stereo not given)	>57	i
COc1ccc(CCCc2nnc(SCC(=O)Nc3ncc(C)s3)o2)cc1	i	i
CC(C)c1nc(SCC(=O)N2CCOCC2)c2c(=O)n(C)c(=O)n(C)c2n1	x	i
Cc1cc(-c2ccco2)n(CC(=O)NCCCc2ccccc2)n1	x	i
CCc1ccc(C(c2ccc(CC)cc2)C(Cl)Cl)cc1	x	i
O=c1c2c3c(sc2n2cnnc2n1Cc1ccccc1)CN(Cc1ccccc1)CC3	>25.6	x
CCN(CC)S(=O)(=O)c1ccc(C(=O)Nc2ncn(Cc3ccccc3)n2)cc1	>57	i
COCCn1nnnc1C(c1ccccc1)N1CCN(C)CC1 (stereo not given)	>57	i

Entries listed so far that contain a COOH group (5):
SMILES	PK Bst	YjeE inh
COc1cccc(C2NC(C)(C(=O)O)C3C(=O)N(C(C)C)C(=O)C23)c1O (stereo not given)	x	i
COc1ccc(C(=O)NCc2oc(-c3ccccc3)cc2C(=O)O)cc1	x	i
CC1CCc2cc(F)ccc2N1C(=O)CCC(=O)O (stereo not given)	>57	i
CCn1c(C(=O)N2CCCC(C(=O)O)C2)cc2sccc21 (stereo not given)	>57	i
O=C(O)c1cc(N=Nc2ccc([N+](=O)[O-])cc2)ccc1O	x	i

The list goes on:
SMILES	PK Bst	YjeE inh
Cc1ccc(CNC(=O)[C@H](C)[C@H]2C[C@]2(C)[C@H](NC(=O)OCc2ccccc2)c2ccccc2)o1	x	i
CCn1cc(C(=O)NCCCN2CC(C)CC(C)C2)c2cc(OC)c(OC)cc2c1=O (stereo not given)	>57	i
CCN(CC)CCOc1ccc(Br)cc1	x	i
COc1ccc(NC(=O)c2c(NC(=O)CNCc3ccco3)sc3c2CCC3)cc1	x	i
COC(=O)Cn1c(C(=O)N(C)C)cc2c1C[C@H]1CN(C(=O)c3ccccc3)[C@@](Cc3ccc(OC)cc3)(C(=O)OC)[C@@H]21	x	i
CCn1cc(C(=O)NCCCN(C)c2ccccc2)c(=O)c2cc(S(=O)(=O)N(C)C)ccc21	x	i
CC1CN(C(=O)c2ccc3c(c2)OCO3)OC(c2ccccc2)O1 (stereo not given)	>57	i
Cc1nc(-c2c(-c3ccc(O)cc3O)noc2C(F)(F)F)cs1	>25.6	x
CC(=O)c1sc2nc(=O)c(C)nn2c1C	>57	i
COC(=O)c1cc2sccc2n1CC(=O)Nc1ccc(OC)c(OC)c1OC	>57	i

Compound profiles, as listed above. Screens in order: PK Bst, YjeE inh
COc1ncnc2c1oc1nc(CC(C)C)c3c(c12)CCCC3 is listed as >57, i
c1ccc(Cn2nnnc2-c2ccco2)cc1 is listed as >57, i
COc1ccccc1NC(=O)CSc1nc(O)cc(=O)[nH]1 is listed as >57, i

The results go on:
SMILES	PK Bst	YjeE inh
O=C(Cc1ccc(Cl)cc1)Nc1ccc2oc(-c3ccncc3)nc2c1	>57	i
CC(=O)Oc1cccc(N2C(=O)C3CC=C(Cl)CC3C2=O)c1 (stereo not given)	x	i
COc1ccc(C(c2sc3ncnn3c2O)N2CCN(c3ccccc3F)CC2)cc1OC (stereo not given)	x	i
COc1ccc(C2C(C(=O)Nc3cccnc3)=C(C)Nc3nc(-c4ccco4)nn32)cc1 (stereo not given)	x	i
CCOC(=O)C1CCCN(C(=O)C(C)Oc2ccc(Cl)cc2Cl)C1 (stereo not given)	>57	i

A draw from above in order of heavy-atom count, rising:
SMILES	PK Bst	YjeE inh
CC(=O)c1sc2nc(=O)c(C)nn2c1C	>57	i
CCOC(=O)C1CCCN(C(=O)C(C)Oc2ccc(Cl)cc2Cl)C1 (stereo not given)	>57	i
O=C(Cc1ccc(Cl)cc1)Nc1ccc2oc(-c3ccncc3)nc2c1	>57	i
COc1ccc(C2C(C(=O)Nc3cccnc3)=C(C)Nc3nc(-c4ccco4)nn32)cc1 (stereo not given)	x	i
COc1ccc(C(c2sc3ncnn3c2O)N2CCN(c3ccccc3F)CC2)cc1OC (stereo not given)	x	i
